Env fusion inh = inhibitors of HIV-1 Env-driven cell-cell fusion, primary screen, HeLa-JRFL effector, CEM21 target cells, luciferase | inhibition, % at 12.3 µM | 360,000 compounds, 1.1% hits;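 active means mean replicate inhibition score of at least 50 and every replicate individually at or above 50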;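 further: 0% = plate neutral controls and 100% = maraviroc near 300 nM; one replicate is shown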
Yeast UUG start = modulators of yeast start codon fidelity, primary screen, whole organism, S. cerevisiae, single point, plate reader | S. cerevisiae UUG-firefly luciferase reporter, luminescence/redox ratio | activity score, % at 18.7 µM | 350,000 compounds, 0.13% hits | AID 602363, 2012;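 active means replicate mean at a twofold rise or more, about +100% in these data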;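 further: firefly luciferase made from a UUG start codon reports start codon fidelity; reporter light over untreated wells divided by growth signal over untreated wells; some hits fall short of that in this replicate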
* hit, by the source's call; [ ] = remark or other dose. Not all compounds are listed (hit frequency here may not be typical).

A first look (2 entries):
The line under a structure holds: Yeast UUG start	Env fusion inh
C[C@@H]1CCCCO[C@H](CN(C)S(=O)(=O)c2cn(C)cn2)[C@H](C)CN([C@@H](C)CO)C(=O)c2cc(NC(=O)Nc3ccc4c(c3)OCO4)ccc2O1
  3	15[16.7 µM]
C[C@@H]1CCCCO[C@@H](CN(C)C(=O)C2CCCCC2)[C@@H](C)CN([C@@H](C)CO)C(=O)c2cc(NC(=O)CCC(F)(F)F)ccc2O1
  20	4[16.7 µM]

The listing, previewed entries included:
The line under a structure holds: Yeast UUG start	Env fusion inh
C[C@@H]1CCCCO[C@H](CN(C)S(=O)(=O)c2cn(C)cn2)[C@H](C)CN([C@@H](C)CO)C(=O)c2cc(NC(=O)Nc3ccc4c(c3)OCO4)ccc2O1
  3	15[16.7 µM]
C[C@@H]1CCCCO[C@@H](CN(C)C(=O)C2CCCCC2)[C@@H](C)CN([C@@H](C)CO)C(=O)c2cc(NC(=O)CCC(F)(F)F)ccc2O1
  20	4[16.7 µM]
COc1cccc(-c2cn(CC[C@@H]3CC[C@@H](NC(=O)CN(C)C)[C@@H](CO)O3)nn2)c1
  -1	-3[16.7 µM]
C[C@H](CO)N1C[C@H](C)[C@H](CN(C)CC2CCOCC2)Oc2ncc(C#Cc3ccncc3)cc2C1=O
  9	-20[16.7 µM]
C[C@H]1CN([C@@H](C)CO)C(=O)c2cc(NS(=O)(=O)c3cn(C)cn3)ccc2O[C@@H]1CN(C)S(=O)(=O)c1ccc(Cl)cc1
  -3	5[16.7 µM]
C[C@@H]1CN([C@@H](C)CO)C(=O)c2cccc(NC(=O)Nc3ccc4c(c3)OCO4)c2O[C@H]1CN(C)C(=O)Nc1ccc2c(c1)OCO2
  5	-17[16.7 µM]
C[C@@H]1CCCCO[C@H](CN(C)Cc2ccc(C(=O)O)cc2)[C@H](C)CN([C@@H](C)CO)C(=O)c2cc(NS(=O)(=O)c3ccc(Cl)cc3)ccc2O1
  3	5[16.7 µM]
C[C@@H]1CN([C@@H](C)CO)C(=O)c2cc(NC(=O)NC3CCCCC3)ccc2O[C@@H](C)CCCCO[C@H]1CN(C)Cc1ccc2c(c1)OCO2
  16	-9[16.7 µM]
C[C@H]1CN([C@@H](C)CO)C(=O)c2cc(NS(C)(=O)=O)ccc2O[C@@H]1CN(C)Cc1ccncc1
  -5	2[16.7 µM]
Cc1ccc(S(=O)(=O)N(C)C[C@H]2Oc3ccc(NC(=O)Nc4ccc(F)cc4)cc3CC(=O)N([C@@H](C)CO)C[C@H]2C)cc1
  -12	32[16.7 µM]
O=C(C[C@@H]1C[C@@H]2c3cc(NC(=O)C4CCC4)ccc3O[C@@H]2[C@H](CO)O1)NCc1ccccc1F
  1	-6[16.7 µM]
CN(C)CC(=O)N1[C@H](C#N)[C@@H](c2ccc(-c3cccc(C(=O)N(C)C)c3)cc2)[C@@H]1CO
  11	5[16.7 µM]
Cc1ccc(S(=O)(=O)Nc2ccc3c(c2)CC(=O)N([C@@H](C)CO)C[C@H](C)[C@@H](CN(C)Cc2ccc(Cl)c(Cl)c2)O3)cc1
  3	-16[16.7 µM]
C[C@@H]1CN([C@H](C)CO)C(=O)Cc2cc(NS(=O)(=O)c3ccc(Cl)cc3)ccc2O[C@@H]1CN(C)S(C)(=O)=O
  -7	4[16.7 µM]
C[C@@H]1CN([C@H](C)CO)C(=O)c2cc(NC(=O)Nc3ccc(F)cc3)ccc2O[C@@H](C)CCCCO[C@H]1CN(C)Cc1ccccc1
  11	2[16.7 µM]
C[C@@H]1CN([C@H](C)CO)C(=O)c2cc(NS(=O)(=O)c3ccccc3)ccc2O[C@H]1CN(C)CC1CC1
  1	-4[16.7 µM]
C[C@H]1CN([C@@H](C)CO)C(=O)c2cc(NC(=O)CCC(F)(F)F)ccc2O[C@H]1CN(C)S(=O)(=O)c1ccc(F)cc1
  -14	-9[16.7 µM]
C[C@@H]1CCCCO[C@@H](CN(C)S(=O)(=O)c2ccccc2)[C@@H](C)CN([C@H](C)CO)C(=O)c2cc(NC(=O)c3ccccc3)ccc2O1
  -10	-33[16.7 µM]
Cc1ccc(S(=O)(=O)Nc2ccc3c(c2)C(=O)N([C@@H](C)CO)C[C@H](C)[C@@H](CN(C)C(=O)C2CCCCC2)OCCCC[C@H](C)O3)cc1
  1	-4[16.7 µM]
C[C@H]1CN([C@@H](C)CO)S(=O)(=O)c2ccc(Br)cc2O[C@H]1CN(C)Cc1cccnc1
  -3	-3[16.7 µM]
C[C@H]1CCCCO[C@@H](CN(C)C(=O)CCC(F)(F)F)[C@@H](C)CN([C@@H](C)CO)C(=O)c2cc(NS(=O)(=O)c3ccc(F)cc3)ccc2O1
  12	-66[16.7 µM]
COC(=O)C(CC#Cc1ccc2c(c1)[C@]1(C(=O)N2)[C@H](c2ccccc2OCCO)N2[C@H](c3ccccc3)[C@H](c3ccccc3)OC(=O)[C@H]2[C@@H]1C(=O)N1CCN(c2ncccn2)CC1)C(=O)OC
  -8	-86[16.7 µM]
C[C@@H]1CCCCO[C@H](CN(C)S(=O)(=O)c2cccs2)[C@@H](C)CN([C@@H](C)CO)C(=O)c2cc(NC(=O)Nc3ccc(F)cc3)ccc2O1
  -8	7[16.7 µM]
COc1ccccc1C#Cc1ccc2c(c1)O[C@@H](CN(C)Cc1ccccc1)[C@@H](C)CN([C@H](C)CO)S2(=O)=O
  1	26[16.7 µM]
C[C@H]1CN([C@@H](C)CO)C(=O)c2cc(-c3ccc(C#N)cc3)cnc2O[C@H]1CN(C)C(=O)c1ccccc1
  -2	1[16.7 µM]
C[C@@H]1CN([C@@H](C)CO)C(=O)c2cc(C3=CCCC3)cnc2O[C@@H]1CN(C)Cc1ccc(C(=O)O)cc1
  40	60*[16.7 µM]
CC(=O)N(C)C[C@H]1Oc2cc(C#CCC3CCCC3)ccc2S(=O)(=O)N([C@@H](C)CO)C[C@@H]1C
  13	13[16.7 µM]
C[C@@H]1CCCCO[C@H](CN(C)S(=O)(=O)c2ccc(Cl)cc2)[C@H](C)CN([C@H](C)CO)C(=O)c2cc(NS(C)(=O)=O)ccc2O1
  5	-9[16.7 µM]
O=C(Cc1ccccn1)NCC[C@H]1CC[C@H](NC(=O)CN2CCOCC2)[C@@H](CO)O1
  0	7[16.7 µM]
C[C@@H]1CN([C@@H](C)CO)C(=O)c2cccc(NS(=O)(=O)c3ccc(F)cc3)c2O[C@H]1CN(C)S(=O)(=O)c1ccccc1
  1	-1[16.7 µM]

Fetched one by one from above (two):
The line under a structure holds: Yeast UUG start	Env fusion inh
C[C@@H]1CCCCO[C@H](CN(C)S(=O)(=O)c2cn(C)cn2)[C@H](C)CN([C@@H](C)CO)C(=O)c2cc(NC(=O)Nc3ccc4c(c3)OCO4)ccc2O1
  3	15[16.7 µM]
C[C@@H]1CCCCO[C@@H](CN(C)C(=O)C2CCCCC2)[C@@H](C)CN([C@@H](C)CO)C(=O)c2cc(NC(=O)CCC(F)(F)F)ccc2O1
  20	4[16.7 µM]

(listing goes on)
The line under a structure holds: Yeast UUG start	Env fusion inh
C[C@@H]1CN([C@H](C)CO)C(=O)c2cccc(NC(=O)NC3CCCCC3)c2O[C@@H]1CN(C)C(=O)NC1CCCCC1
  8	17[16.7 µM]
Cc1noc(C)c1NC(=O)Nc1ccc2c(c1)CC(=O)N([C@H](C)CO)C[C@H](C)[C@@H](CN(C)CC1CC1)O2
  7	44[16.7 µM]
C[C@@H]1CN([C@H](C)CO)S(=O)(=O)c2ccc(C#Cc3ccccc3)cc2O[C@H]1CN(C)C(=O)c1ccccn1
  2	-30[16.7 µM]
CC(C)NC(=O)N[C@H]1CC[C@H](CCn2cc(-c3ccc(F)cc3)nn2)O[C@H]1CO
  -7	37[16.7 µM]
O=S(=O)(N[C@@H]1CC[C@H](CCn2cc(-c3ccccc3F)nn2)O[C@@H]1CO)c1ccc(Cl)cc1
  -8	10[16.7 µM]
C[C@@H]1CN([C@H](C)CO)C(=O)c2cc(C#CC3(O)CCCC3)cnc2O[C@H]1CN(C)Cc1cccnc1
  -7	-9[16.7 µM]
CO[C@H]1CN(C)C(=O)c2ccc(NC(=O)c3ccccc3)cc2OC[C@@H](C)N(C)C[C@@H]1C
  -7	8[16.7 µM]
CO[C@@H]1CN(C)C(=O)c2ccc(NC(=O)c3ccno3)cc2OC[C@H](C)N(S(C)(=O)=O)C[C@@H]1C
  -3	-19[16.7 µM]
C[C@@H]1CCCCO[C@@H](CN(C)S(=O)(=O)c2ccccc2)[C@H](C)CN([C@H](C)CO)C(=O)c2cc(NS(=O)(=O)c3ccccc3)ccc2O1
  -2	-23[16.7 µM]
CCNC(=O)C[C@@H]1CC[C@H](NS(=O)(=O)c2ccc(C)cc2)[C@H](CO)O1
  -4	1[16.7 µM]
C[C@@H]1CN([C@@H](C)CO)S(=O)(=O)c2ccc(-c3cncnc3)cc2O[C@H]1CN(C)C(=O)Cc1ccccc1
  -7	-13[16.7 µM]
COc1cccc(NC(=O)N[C@H]2C=C[C@@H](CC(=O)N3CCCCC3)O[C@H]2CO)c1
  1	-11[16.7 µM]
CC(C)N1C(=O)[C@@]2(Cc3ccccc31)c1ccccc1C(=O)N(Cc1ccccc1)[C@H]2c1ccc(CO)cc1
  25	6[16.7 µM]
C[C@@H]1CN([C@@H](C)CO)C(=O)c2cc(N(C)C)ccc2O[C@H]1CN(C)Cc1ccc2c(c1)OCO2
  -8	-16[16.7 µM]
C[C@@H]1CN([C@H](C)CO)C(=O)c2cc(NC(=O)Nc3cccc4ccccc34)ccc2O[C@@H]1CN(C)Cc1ccc(Oc2ccccc2)cc1
  -15	-16[16.7 µM]
CN(C)CC(=O)Nc1ccc2c(c1)[C@H]1C[C@H](CC(=O)NC3CCCC3)O[C@H](CO)[C@H]1O2
  5	12[16.7 µM]
C[C@@H]1CN([C@@H](C)CO)C(=O)Cc2cc(NC(=O)CCCCCC(=O)Nc3ccccc3N)ccc2O[C@H]1CN(C)C(=O)NC1CCCCC1
  -11	-5[16.7 µM]
C[C@H]1CN([C@@H](C)CO)C(=O)c2cccc(NS(=O)(=O)c3ccc(Cl)cc3)c2O[C@H]1CN(C)S(=O)(=O)c1cn(C)cn1
  -7	5[16.7 µM]
COc1ccc(NC(=O)Nc2ccc3c(c2)[C@@H]2C[C@H](CC(=O)N[C@@H](C)c4ccccc4)O[C@@H](CO)[C@@H]2O3)cc1
  -12	0[16.7 µM]
COc1ccc(CN(C)C[C@@H]2OCCCC[C@H](C)Oc3ccc(NC(=O)Nc4ccccc4)cc3C(=O)N([C@H](C)CO)C[C@H]2C)cc1
  41	-37[16.7 µM]
CCNC(=O)C[C@H]1CC[C@H]2[C@@H](COc3ccc(NC(=O)c4ccccc4Cl)cc3C(=O)N2C)O1
  -2	-11[16.7 µM]
CC(C)NC(=O)N(C)C[C@H]1Oc2cc(-c3cncnc3)ccc2S(=O)(=O)N([C@H](C)CO)C[C@@H]1C
  23	-24[16.7 µM]
C[C@@H]1CN([C@@H](C)CO)C(=O)c2cccc(NC(=O)c3ccc(-c4nccs4)cc3)c2O[C@H]1CN(C)S(=O)(=O)c1cn(C)cn1
  6	-1[16.7 µM]
C/C=C/c1cnc2c(c1)C(=O)N([C@H](C)CO)C[C@@H](C)[C@H](CN(C)C(=O)NC1CCCC1)O2
  -2	16[16.7 µM]
O=C(C[C@H]1CC[C@H](NC(=O)c2cccnc2)[C@H](CO)O1)NCCN1CCCCC1
  3	17[16.7 µM]
C#CCN1[C@H](/C=C/C2CC2)[C@H](Cc2ccccc2)OC(=O)[C@@H]1[C@@H]1N[C@@H](C(=O)OC)C(C)(C)S1
  4	23[16.7 µM]
Cc1ccc(S(=O)(=O)N(C)C[C@@H]2Oc3c(NC(=O)c4cc(C)nn4C)cccc3C(=O)N([C@@H](C)CO)C[C@H]2C)cc1
  -1	-66[16.7 µM]
C[C@H]1CN([C@@H](C)CO)C(=O)Cc2cc(NC(=O)CCCCCC(=O)Nc3ccccc3N)ccc2O[C@H]1CN(C)Cc1ccc(Oc2ccccc2)cc1
  4	15[16.7 µM]
C[C@@H]1CCCCO[C@H](CN(C)C(=O)Nc2ccc(F)cc2)[C@H](C)CN([C@@H](C)CO)C(=O)c2cc(NC(=O)CCCN(C)C)ccc2O1
  -8	-3[16.7 µM]
C[C@@H]1CN([C@@H](C)CO)C(=O)c2cc(-c3cncnc3)cnc2O[C@H]1CN(C)Cc1ccncc1
  4	-35[16.7 µM]

The list goes on, overlapping the part above by two compounds.
The line under a structure holds: Yeast UUG start	Env fusion inh
C[C@@H]1CCCCO[C@H](CN(C)C(=O)Nc2ccc(F)cc2)[C@H](C)CN([C@@H](C)CO)C(=O)c2cc(NC(=O)CCCN(C)C)ccc2O1
  -8	-3[16.7 µM]
C[C@@H]1CN([C@@H](C)CO)C(=O)c2cc(-c3cncnc3)cnc2O[C@H]1CN(C)Cc1ccncc1
  4	-35[16.7 µM]
C[C@@H]1CCCCO[C@H](CN(C)S(C)(=O)=O)[C@@H](C)CN([C@H](C)CO)C(=O)c2cc(N(C)C)ccc2O1
  -9	6[16.7 µM]
CO[C@H]1CN(C)C(=O)c2ccc(NC(=O)Nc3ccccc3)cc2OC[C@@H](C)N(C(C)=O)C[C@@H]1C
  20	13[16.7 µM]
C[C@@H]1CN([C@@H](C)CO)S(=O)(=O)c2ccc(-c3ccccc3)cc2O[C@H]1CN(C)Cc1cccnc1
  -5	32[16.7 µM]
C[C@H](CO)N1C[C@H](C)[C@@H](CN(C)Cc2cccnc2)Oc2cc(C#CCN(C)C)ccc2S1(=O)=O
  -3	-29[16.7 µM]
COc1ccc(NC(=O)N(C)C[C@@H]2OCCCC[C@@H](C)Oc3ccc(NS(=O)(=O)c4ccc(F)cc4)cc3C(=O)N([C@H](C)CO)C[C@H]2C)cc1
  3	-113[16.7 µM]

Screening data as filed in PubChem.
